PD-1 reversal – activators reversing PD-1 mediated T-cell inhibition. primary human CD4 T cells, PD-L1 beads, CellTiter-Glo 96 h. 29,000 tested, under 10 active. activation, % (no concentration beside the values);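 active = replicate mean of 50% or more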;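 also: 0% = median vehicle wells and 100% = positive control; 100 nL library stock added to about 50 µL; numbers are from one replicate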
YB-1 expression – YB-1 expression inhibition | U2OS, qRT-PCR YB-1 vs CDIP delta delta Cp, 16 h; active compounds read high; zero = DMSO, each unit about twofold | delta delta Cp (YB-1 minus CDIP) (test concentration not listed) | 0.37% of 30,000 active;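 active = delta delta Cp rounded down to an integer at or above 3, about 3 SD of DMSO wells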;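 also: higher means less YB-1 transcript or more CDIP transcript relative to DMSO; stock transfer was 100 nL into about 100 µL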
MITF inhib – inhibitors of MITF. TRPM1 promoter luciferase, luminescence, 24 h. inhibition, % (concentration not given with the values). 0.28% of 37,000 active;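 active = most replicates at 85% or more, or half of them and the mean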;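 also: human melanocyte line stably carrying TRPM1 promoter luciferase reporter; 0% = vehicle wells and 100% = a positive control; the first replicate is given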
Hedgehog inh – Sonic Hedgehog pathway inhibition; 2.1% of 22,000 active; Shh-LIGHT2 Gli-luciferase reporter, 30 h; AID 2313; inhibition, % (no concentration beside the values);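 active = replicate mean of 65% or more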;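 also: pathway switched on by Shh-conditioned medium diluted 1 in 25 in low serum; 100 nL library stock added to about 40 µL; 0% = median of neutral wells and 100% = positive control level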
An asterisk follows results filed as active; · = not tested or not shown. The list is partial; the hit share may differ from the screen's.

compound,PD-1 reversal,YB-1 expression,MITF inhib,Hedgehog inh
O=C(CSc1nc2ccccc2nc1N1CCCC1)Nc1ccccc1,-1.9,0.18,-60,-26
COc1ccc(NC(=O)CSc2ncnc3sc(-c4ccccc4)cc23)c([N+](=O)[O-])c1,1.5,·,33,·
C[C@@]12C[C@]3(O)O[C@H](O1)C1(COC(=O)c4ccccc4)[C@H]3C[C@@]12O[C@@H]1O[C@H](COC(=O)c2ccccc2)[C@@H](O)[C@H](O)[C@H]1O,1.0,0.42,11,-11
Cc1ccc(S(=O)(=O)N(C)C[C@H]2Oc3ccc(NC(=O)c4ccncc4)cc3C(=O)N([C@@H](C)CO)C[C@H]2C)cc1,0.7,-0.24,2,-31
CCCCCCCCCCCCC/C=C/[C@@H](O)[C@H](CO)NC(C)=O,·,0.25,1,14
COc1ccc(CN(C)C[C@H]2Oc3ccc(NS(=O)(=O)c4ccc(OC)cc4)cc3C(=O)N([C@H](C)CO)C[C@H]2C)cc1,1.0,-0.24,3,2
C[C@@H]1CN([C@H](C)CO)C(=O)c2cccc(NC(=O)NC3CCCCC3)c2O[C@H]1CN(C)S(=O)(=O)c1ccc(Cl)cc1,-1.7,-0.49,-2,14
Cc1cc(C(=O)Nc2cccc3c2O[C@H](CN(C)Cc2ccc(C(=O)Nc4ccccc4N)cc2)[C@H](C)CN([C@@H](C)CO)C3=O)n(C)n1,-3.6,-0.7,5,·

compound,PD-1 reversal,YB-1 expression,MITF inhib,Hedgehog inh
O=C(Nc1cccnc1)c1cc2c(s1)-c1ccccc1CC2,-2.3,-0.57,-54,-70
COc1ccccc1-c1nnc(SCC(=O)Nc2ccc(Cl)cc2Cl)n1-c1ccccc1,-0.7,·,52,·
Cc1noc(C)c1NC(=O)Nc1cccc2c1O[C@@H](CN(C)S(=O)(=O)c1ccc(Cl)cc1)[C@H](C)CN([C@H](C)CO)C2=O,2.7,0.11,6,-23
C[C@H](CO)N1C[C@H](C)[C@H](CN(C)Cc2ccc(Oc3ccccc3)cc2)Oc2c(NC(=O)C3CC3)cccc2C1=O,·,-0.26,-4,4
C[C@@H]1CCCCO[C@@H](CN(C)C(=O)c2ccccc2)[C@@H](C)CN([C@H](C)CO)C(=O)c2cc(NC(=O)Nc3ccc(C(F)(F)F)cc3)ccc2O1,·,-0.27,28,12
Cc1[nH]c2ccccc2c1C(=O)CSc1ccc2ccccc2n1,-3.2,·,34,·
O=C(Nc1ccccc1)OCC(CN1CCCCC1)OC(=O)Nc1ccccc1 (stereo not drawn),·,-0.031,-1,-14
COc1ccc(S(=O)(=O)Nc2cccc3c2O[C@@H](CN(C)Cc2ccc(C(F)(F)F)cc2)[C@H](C)CN([C@H](C)CO)C3=O)cc1,·,-0.11,6,40

compound,PD-1 reversal,YB-1 expression,MITF inhib,Hedgehog inh
CC(=O)NC1C(=O)N(C)N=C1c1ccccc1 (stereo not drawn),0.4,-0.7,-20,·
Cc1ccc(S(=O)(=O)Nc2cccc3c2O[C@H](CN(C)Cc2ccc(C(=O)Nc4ccccc4N)cc2)[C@H](C)CN([C@H](C)CO)C3=O)cc1,-0.6,-0.34,31,·
C[C@H](CO)N1C[C@H](C)[C@H](CN(C)Cc2ccccc2)Oc2c(NC(=O)C3CC3)cccc2C1=O,0.9,-0.78,-4,-18
COc1cc(/C=C/CO[C@@H]2O[C@H](CO)[C@@H](O)[C@H](O)[C@H]2O)ccc1O,0.0,-0.38,-4,-27
C[C@H](CO)N1C[C@H](C)[C@H](CN(C)Cc2ccc3c(c2)OCO3)Oc2c(NC(=O)c3cnccn3)cccc2C1=O,1.5,0.27,-23,19
C[C@@H]1CCCCO[C@H](CN(C)C)[C@@H](C)CN([C@H](C)CO)C(=O)c2cc(NC(=O)Nc3ccc4c(c3)OCO4)ccc2O1,1.6,0.028,-7,-13
COC(=O)CSc1nc(-c2cccc(C)c2)nc2c1CCCC2,0.5,·,6,·
CCOC(=O)C1CCN(C(=O)Nc2ccc3snnc3c2)CC1,-0.3,·,-4,·

compound,PD-1 reversal,YB-1 expression,MITF inhib,Hedgehog inh
N#Cc1c(-c2cccs2)nc(SCC(=O)c2ccc(Br)cc2)[nH]c1=O,-0.4,-0.42,28,-5
CCN(C(=O)c1cccc(C(=O)N(CC)c2ccccc2)c1)c1ccccc1,1.8,0.31,25,-6
CCNC(=O)c1c(NC(=O)c2ccccc2[N+](=O)[O-])sc2c1CCCC2,-0.4,·,-5,·
COc1ccc(OC)c(NC(=O)CSc2nc3sc4c(c3c(=O)n2-c2ccccc2)CCCC4)c1,-3.0,·,18,·
Cc1ccc(NS(=O)(=O)c2ccc(NS(=O)(=O)c3ccc4c(c3)OCCO4)cc2)c(C)c1,-0.2,·,-1,·
C[C@@H]1CN([C@@H](C)CO)C(=O)c2cccc(NC(=O)c3cnccn3)c2O[C@H]1CN(C)C(=O)Nc1ccc2c(c1)OCO2,0.2,-0.12,0,-7
O=c1[nH]c2ccc(S(=O)(=O)NCc3ccco3)cc2[nH]1,-5.2,·,22,·
CC(C)NC(=O)Nc1cccc2c1O[C@H](CN(C)Cc1ccc(Oc3ccccc3)cc1)[C@H](C)CN([C@H](C)CO)C2=O,-0.3,-0.39,-1,13

compound,PD-1 reversal,YB-1 expression,MITF inhib,Hedgehog inh
COc1ccc(NC(=O)COc2ccc([N+](=O)[O-])cc2)cc1OC,2.0,·,-12,·
Cc1ccc(NC(=O)CSc2nc(N)c(-c3ccccc3)c(=O)[nH]2)cc1Cl,2.0,·,-8,·
C[C@@H]1CN([C@@H](C)CO)C(=O)c2cc(NC(=O)C3CCCCC3)ccc2O[C@H]1CN(C)C,·,0.1,-1,-10
CCCCC1C(=O)N(c2ccccc2)N(c2ccc(O)cc2)C1=O (stereo not drawn),·,0.23,-6,-8
C[C@@H]1CCCCO[C@@H](CN(C)S(=O)(=O)c2ccccc2)[C@@H](C)CN([C@H](C)CO)C(=O)c2cc(NS(=O)(=O)c3ccccc3)ccc2O1,-4.8,0.017,20,55
C[C@@H]1CCCCO[C@H](CN(C)Cc2ccccc2)[C@@H](C)CN([C@H](C)CO)C(=O)c2cc(NC(=O)Nc3ccccc3)ccc2O1,·,0.046,4,17
Cc1csc2sc(C(=O)c3ccc(Cl)cc3)c(C)c12,4.1,-0.5,9,50
CCOC(=O)c1c(NC(=O)CN2C(=O)c3cccc4cccc(c34)C2=O)sc2c1CCC2,4.5,·,8,·

compound,PD-1 reversal,YB-1 expression,MITF inhib,Hedgehog inh
C[C@@H]1CN([C@@H](C)CO)C(=O)c2cc(NS(C)(=O)=O)ccc2O[C@@H]1CN(C)CC1CCCCC1,1.7,0.079,-14,·
COc1ccc(OC)c(NC(=O)CNC(=O)c2ccc(Cl)cc2)c1,-0.8,·,-7,·
C[C@H]1CN([C@@H](C)CO)C(=O)c2cc(NC(=O)CCC(F)(F)F)ccc2O[C@H]1CN(C)Cc1ccc(C(F)(F)F)cc1,-2.5,-0.035,4,23
CCOC(=O)c1c(NC(=O)c2nn(CC)cc2Br)c(C#N)nn1-c1ccccc1,-0.2,·,6,·
COc1ccc(CN(C)C[C@H]2Oc3c(NC(=O)Nc4ccc(OC)cc4)cccc3C(=O)N([C@@H](C)CO)C[C@@H]2C)cc1,·,-0.19,-31,-27
CC(C)NC(=O)N(C)C[C@H]1Oc2ccc(NC(=O)NC3CCCCC3)cc2CC(=O)N([C@@H](C)CO)C[C@@H]1C,1.9,0.034,-1,-25
Cc1ccccc1OCC(=O)Nc1ccc(O)cc1C(=O)O,1.7,·,2,·
C[C@@H]1CN([C@H](C)CO)C(=O)c2cccc(NC(=O)c3cnccn3)c2O[C@@H]1CN(C)S(=O)(=O)c1ccc(Cl)cc1,-0.4,0.45,-15,15

compound,PD-1 reversal,YB-1 expression,MITF inhib,Hedgehog inh
O=C(OCc1ccc2nonc2c1)c1cc(-c2ccccc2)nc2ccccc12,-0.2,·,-30,·
N#CCCN(CC1COc2ccccc2O1)C(=O)c1ccccc1 (stereo not drawn),1.3,·,-12,·
Cc1cc(=O)c2c(O)cc(O)c(C)c2o1,·,0.053,16,-18
O=C(NCCCN1CCOCC1)C1CC(c2ccc(Cl)c(Cl)c2)=NO1 (stereo not drawn),2.4,·,1,·
COc1ccccc1OCc1nc(-c2ccccc2)cs1,3.4,-0.18,-12,-35
C[C@H](CO)N1C[C@H](C)[C@@H](CN(C)CC2CC2)Oc2c(NC(=O)Nc3ccc(F)cc3)cccc2C1=O,-0.7,0.015,-4,2
C[C@@H]1CN([C@H](C)CO)C(=O)c2cc(NS(=O)(=O)c3ccc(Cl)cc3)ccc2O[C@@H]1CN(C)CC1CC1,0.5,-0.1,-7,-11
Cc1noc(C)c1S(=O)(=O)Nc1ccc2c(c1)CC(=O)N([C@@H](C)CO)C[C@H](C)[C@@H](CN(C)C(=O)Nc1ccccc1)O2,-0.3,-0.52,-3,-16

compound,PD-1 reversal,YB-1 expression,MITF inhib,Hedgehog inh
CC(=O)c1cccc(NC(=O)CSc2nc3ccc([N+](=O)[O-])cc3s2)c1,-4.0,·,8,·
CS(=O)(=O)N(CC(=O)Nc1ccc(F)c(Cl)c1)c1ccc2c(c1)OCCO2,0.9,·,-29,·
O=C(CCCCc1ccc(O)cc1)CCc1ccc(O)cc1,-1.2,-0.34,10,28
C[C@H]1CN([C@@H](C)CO)C(=O)c2cc(NC(=O)CCCN(C)C)ccc2O[C@H]1CN(C)C(=O)Nc1cccc2ccccc12,1.2,0.019,7,-15
C[C@H](CO)N1C[C@H](C)[C@H](CN(C)C(=O)Nc2ccc(F)cc2)Oc2ccc(NS(=O)(=O)c3cccs3)cc2C1=O,·,2.1,-13,·
C[C@@H]1CN([C@H](C)CO)C(=O)c2cccc(N(C)C)c2O[C@H]1CN(C)Cc1ccc(C(F)(F)F)cc1,-7.3,0.23,13,19
Cn1c(Cn2cc(C(F)(F)F)ccc2=O)n[nH]c1=S,2.7,0.19,-25,-6
COc1ccc(NC(=O)COc2ccc(C(C)C)cc2Br)c([N+](=O)[O-])c1,-2.9,·,-1,·

compound,PD-1 reversal,YB-1 expression,MITF inhib,Hedgehog inh
C[C@@H]1CCCCO[C@@H](CN(C)Cc2ccc(C(=O)O)cc2)[C@@H](C)CN([C@H](C)CO)C(=O)c2cc(NC(=O)Nc3ccc4c(c3)OCO4)ccc2O1,2.9,0.11,-5,-9
Cc1noc(C)c1NC(=O)Nc1cccc2c1O[C@H](CN(C)CC1CCCCC1)[C@@H](C)CN([C@@H](C)CO)C2=O,-2.6,-0.46,-8,-16
Cc1cc(C(=O)Nc2cccc3c2O[C@@H](CN(C)CC2CCCCC2)[C@@H](C)CN([C@H](C)CO)C3=O)n(C)n1,-0.9,0.014,2,-5
O=C(Cn1c(=O)oc2ccccc21)Nc1ccc(S(=O)(=O)N2CCOCC2)cc1,0.0,·,-5,·
C[C@H]1CN([C@@H](C)CO)C(=O)c2cc(NC(=O)Nc3cccc4ccccc34)ccc2O[C@@H]1CN(C)C(=O)Nc1ccc2c(c1)OCO2,0.3,-0.33,2,-20
Cc1cc(C)cc(-c2nc3cc(NC(=O)COc4ccccc4[N+](=O)[O-])ccc3o2)c1,-0.7,·,27,·
CCn1c(SCC(=O)Nc2cc(Cl)c(Cl)cc2Cl)nnc1-c1ccccc1Cl,1.8,·,17,·
C[C@H](CO)N1C[C@H](C)[C@H](CN(C)Cc2ccc3c(c2)OCO3)Oc2ccc(NS(=O)(=O)c3cccs3)cc2C1=O,0.0,0.27,-9,29

compound,PD-1 reversal,YB-1 expression,MITF inhib,Hedgehog inh
Cc1cc(C(=O)Nc2cccc3c2O[C@H](CN(C)S(=O)(=O)c2ccc(F)cc2)[C@@H](C)CN([C@@H](C)CO)C3=O)n(C)n1,1.8,0.25,1,25
O=C(Nc1ncnc2sc3c(c12)CCCCC3)c1ccc(F)cc1,-3.2,-0.19,1,·
CC(C)NC(=O)Nc1cccc2c1O[C@H](CN(C)S(=O)(=O)c1cn(C)cn1)[C@@H](C)CN([C@H](C)CO)C2=O,·,0.8,0,-26
COCCCNC(=O)C(=O)c1cn(C)c2ccccc12,2.6,·,-38,·
CNC[C@@H]1OCCCC[C@@H](C)Oc2ccc(NC(=O)Cc3ccccc3)cc2C(=O)N([C@H](C)CO)C[C@@H]1C,1.0,0.028,4,·
N#Cc1c(NC(=O)c2cc3nc(-c4ccco4)cc(C(F)(F)F)n3n2)sc2c1CCC2,0.0,·,-12,·
C[C@@H]1CN([C@@H](C)CO)C(=O)c2cccc(NS(C)(=O)=O)c2O[C@H]1CN(C)S(=O)(=O)c1ccc(Cl)cc1,0.5,-0.0025,0,-3

Already shown: entries from further up.
compound,PD-1 reversal,YB-1 expression,MITF inhib,Hedgehog inh
COCCCNC(=O)C(=O)c1cn(C)c2ccccc12,2.6,·,-38,·
CNC[C@@H]1OCCCC[C@@H](C)Oc2ccc(NC(=O)Cc3ccccc3)cc2C(=O)N([C@H](C)CO)C[C@@H]1C,1.0,0.028,4,·
N#Cc1c(NC(=O)c2cc3nc(-c4ccco4)cc(C(F)(F)F)n3n2)sc2c1CCC2,0.0,·,-12,·
C[C@@H]1CN([C@@H](C)CO)C(=O)c2cccc(NS(C)(=O)=O)c2O[C@H]1CN(C)S(=O)(=O)c1ccc(Cl)cc1,0.5,-0.0025,0,-3
